# INS promoter inh: TRM-6 insulin promoter activity inhibition; TRM-6 cells (human fetal islet line), insulin promoter-eGFP reporter, imaging; reporter expression induced with tamoxifen; inhibition, % at 2 µM; 130,000 compounds, 0.9% hits; AID 1273;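 active means inhibition above the mean plus 3 SD, with well images judged a real hit on visual review, cut at about 60% in these data, passing the limit was not always enough; inconclusive means inhibition over the cutoff but images rejected on review; inactive means inhibition not above the cutoff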
# HSV augment: increases HSV replication in cells; HSV replication augmentation in cells, fold increase; maximum fold increase; 220,000 compounds, 0.005% hits;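 active means peak rise of 1.5-fold or more in the series; inconclusive means self-fluorescent or not available for retest; tested in PC3 cells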;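 further: first round at 10 µM; read as green reporter fluorescence; hits show the peak of a series up to 25 µM; 1 = signal of infected wells without compound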
# GALR2 agonist: GALR2 (human) receptor agonism. O43603. GALR2-expressing cells, agonist activation read-out. activation, %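 (tested at 5 µM)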. 140,000 compounds, 0.48% hits. AID 803;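 active means above mean plus 3 SD of all compounds, about 5% in these data, not always enough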;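 further: 0% = vehicle buffer wells and 100% = reference agonist at full effect; tested in CHO reporter cells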
# Target sequence (O43603 whole entry, looked up): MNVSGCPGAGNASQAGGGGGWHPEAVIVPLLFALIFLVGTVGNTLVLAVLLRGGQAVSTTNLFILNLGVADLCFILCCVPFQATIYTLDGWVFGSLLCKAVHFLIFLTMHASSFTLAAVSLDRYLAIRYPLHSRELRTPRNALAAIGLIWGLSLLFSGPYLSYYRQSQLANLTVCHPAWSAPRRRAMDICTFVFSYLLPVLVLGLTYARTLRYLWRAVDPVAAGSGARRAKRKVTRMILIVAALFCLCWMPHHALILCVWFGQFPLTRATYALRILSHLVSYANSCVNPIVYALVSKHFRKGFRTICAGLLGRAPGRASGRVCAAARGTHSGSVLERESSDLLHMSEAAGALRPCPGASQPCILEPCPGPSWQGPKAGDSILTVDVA
# PKD1 inh: blocks activity of human protein kinase D1; Q15139; PKD1 kinase fluorescence polarization assay; inhibition, %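 (about 10 µM by stock and volumes)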; 200,000 compounds, 0.056% hits; AID 797;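 active means inhibition of 50% or more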;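 further: controls were vehicle for no effect and a reference inhibitor for full effect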
# RGS16-Gao: regulators of human RGS16-Galphao interaction | O15492+P09471 | bead-based flow cytometry RGS16-Galphao binding, fluorescence; actives lie on both sides | binding response (% of control), % at 10 µM | 220,000 compounds, 0.38% hits;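 active means below 25% or above 175%, edge rows of some plates excepted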;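 further: Galphao activated by GDP with aluminum fluoride before binding; 100% = wells without compound and 0% = beads without RGS; some results beyond the cut were filed as inactive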
# Target sequence (O15492 whole entry, looked up): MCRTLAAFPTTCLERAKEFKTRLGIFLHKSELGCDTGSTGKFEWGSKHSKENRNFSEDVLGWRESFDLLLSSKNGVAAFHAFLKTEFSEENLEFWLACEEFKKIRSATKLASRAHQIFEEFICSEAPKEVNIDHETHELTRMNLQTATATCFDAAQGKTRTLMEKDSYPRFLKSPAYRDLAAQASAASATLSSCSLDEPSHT
# Target sequence (P09471 whole entry, looked up): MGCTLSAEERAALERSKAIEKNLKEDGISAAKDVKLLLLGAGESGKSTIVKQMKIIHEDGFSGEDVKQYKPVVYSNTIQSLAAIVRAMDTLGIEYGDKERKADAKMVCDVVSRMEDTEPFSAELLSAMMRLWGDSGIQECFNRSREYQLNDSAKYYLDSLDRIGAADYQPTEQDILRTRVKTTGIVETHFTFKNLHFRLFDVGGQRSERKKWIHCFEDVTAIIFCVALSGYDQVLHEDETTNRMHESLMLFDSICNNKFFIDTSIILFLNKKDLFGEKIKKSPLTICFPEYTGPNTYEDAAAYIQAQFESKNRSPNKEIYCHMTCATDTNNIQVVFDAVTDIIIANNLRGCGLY
# INS promoter inh cell count: further read-out of INS promoter inh, marked with its call; normalized cell count, %; measured here: cell count, toxicity; reference of the scale not given here;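 cells exposed to compound for 48 h; stained nuclei by imaging scaled within each plate; lower means fewer cells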
# HSV augment primary fold: also measured in HSV augment; calls as there; fold increase; compound at 10 µM; measured here: primary screen fold increase 10 uM; tested in PC3 cells;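 GFP signal in the first replicate; 1 = infected wells without compound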
# * hit, by the source's call; i = inactive; ? = inconclusive; . = no result given. Rows were taken by chance. Share with any hit: about 1.1%.
SMILES,INS promoter inh,INS promoter inh cell count,HSV augment,HSV augment primary fold,GALR2 agonist,PKD1 inh,RGS16-Gao
CC1CCc2nc3sc4c(c3c(N)c2C1)CCCC4 (stereo unspecified),-69,65,.,.,-1.9,-12,105
COc1cc(CC(=O)N/N=C/c2ccc([N+](=O)[O-])cc2)c([N+](=O)[O-])cc1OC,.,.,i,0.93,-1.9,0,104
Cc1ccc(-c2c[n+]3c(n2-c2ccccc2)CCC3)cc1,.,.,?,.,.,.,103
Cc1cc(C(=O)COc2ncnc3sccc23)c(C)n1C,21,126,i,1,-1.2,-8,93
COc1ccc(N2CCN(C(=O)CC34CC5CC(CC(C5)C3)C4)CC2)c([N+](=O)[O-])c1,23,82,i,1.1,0.0,-12,69
CCn1cc(C(=O)N2CCN(c3ccccn3)CC2)c(=O)c2cc(S(=O)(=O)N3CCC(C)CC3)ccc21,-21,86,.,.,.,-6,107
CCOc1ncccc1C(=O)Nc1cc(S(=O)(=O)N2CCOCC2)ccc1N1CCCC1,11,79,i,1,.,-4,105
CCC1(C)CC2(CCCN(CCC(=O)c3ccccc3)C2)CCO1 (stereo unspecified),.,.,i,0.92,.,1,102
CC(=O)Nc1ccnc(-c2cccnc2)n1,-187,97,i,0.86,-2.9,6,97
CC(=O)c1ccc(NC(=S)N2CCCC(C(F)(F)F)C2)cc1 (stereo unspecified),.,.,i,1,.,-4,100
N#CC1=C(N)Nc2nc3ccccc3n2C1c1ccc(Cl)cc1 (stereo unspecified),22,118,i,0.91,-0.7,0,110
O=C(NNC(=S)NC1CCCCC1)c1ccccc1O,.,.,i,0.95,.,2,96
Cc1cc(C(=O)N(C)CC(=O)Nc2ccccc2C(F)(F)F)c(C)o1,.,.,i,0.77,-2.6,-12,92
CN(C)CCNC(=S)Nc1cccc(Cl)c1,17,87,i,0.85,-0.8,8,0.9*
COc1ccc(Nc2c(-c3ccc(C)cc3)nc3cnccn23)cc1,8,171,i,0.97,.,3,108
CS(=O)(=O)c1ccc2nc(NC(=O)Cc3ccccc3)sc2c1,.,.,.,.,.,-3,114
CCSc1nnc(NC(=O)c2ccc(C)o2)s1,-9,68,i,0.89,-1.2,-6,105
COc1ccc(-n2nnnc2-c2ccccc2)cc1,-45,38,i,0.56,-2.2,-3,96
CCc1ccccc1NC(=S)N1CCN(c2ccccn2)CC1,15,118,i,0.97,-2.5,-10,97
CC1=NN(C(=O)c2ccc(Cn3nc(C)c([N+](=O)[O-])c3C)o2)C(O)(C(F)(F)F)C1 (stereo unspecified),40,58,i,1.1,0.4,-2,96
COc1cc(OC)nc(-n2ncc(OC)c(Br)c2=O)n1,.,.,i,0.96,-1.1,-3,99
O=C1NCCN(Cc2c(F)cccc2Cl)C1CC(=O)N1CCCCO1 (stereo unspecified),24,35,i,1,.,-4,107
Cc1ccc(C)c(NC(=S)N2CCC(N(C)CC3CCCO3)CC2)c1 (stereo unspecified),-17,108,i,1.1,-1.6,-2,104
O=C(CN1CCN(Cc2ccc3c(c2)OCO3)CC1)Nc1ccc(F)cc1,10,101,i,0.99,0.3,-13,68
Nc1ccc(N2CCCCC2)c(S(=O)(=O)Nc2ccccc2Cl)c1,.,.,i,0.86,.,.,95

# Quoted at random: 6 compounds from above, in no set order.
SMILES,INS promoter inh,INS promoter inh cell count,HSV augment,HSV augment primary fold,GALR2 agonist,PKD1 inh,RGS16-Gao
CC(=O)c1ccc(NC(=S)N2CCCC(C(F)(F)F)C2)cc1 (stereo unspecified),.,.,i,1,.,-4,100
COc1ccc(-n2nnnc2-c2ccccc2)cc1,-45,38,i,0.56,-2.2,-3,96
CC1CCc2nc3sc4c(c3c(N)c2C1)CCCC4 (stereo unspecified),-69,65,.,.,-1.9,-12,105
Cc1ccc(C)c(NC(=S)N2CCC(N(C)CC3CCCO3)CC2)c1 (stereo unspecified),-17,108,i,1.1,-1.6,-2,104
COc1ccc(Nc2c(-c3ccc(C)cc3)nc3cnccn23)cc1,8,171,i,0.97,.,3,108
O=C(CN1CCN(Cc2ccc3c(c2)OCO3)CC1)Nc1ccc(F)cc1,10,101,i,0.99,0.3,-13,68

# More structures.
SMILES,INS promoter inh,INS promoter inh cell count,HSV augment,HSV augment primary fold,GALR2 agonist,PKD1 inh,RGS16-Gao
Cc1ccc(OCCN2CCNCC2)c([N+](=O)[O-])c1,-62,93,i,1,0.1,-1,108
CCCc1nnc(NC(=O)c2cccnc2)s1,.,.,i,0.95,.,.,94
CCN=c1scc(-c2cccs2)n1/N=C/c1cc(OC)ccc1O,22,119,i,0.78,-0.8,-9,31
CNC(=O)CSc1nnc(-c2cccs2)o1,51,65,i,1,-1.7,-6,102
COc1ccc(-c2cn[nH]c2-c2ccc(OCc3ccccc3)cc2O)cc1OC,.,.,i,0.85,.,.,104
CCOC(=O)c1c(NC(=O)CSc2nnc(C)c(=O)[nH]2)sc(C)c1C,.,.,i,1,.,2,99
O=C(Cn1cnc2c(cnn2-c2ccccc2)c1=O)N1CCOCC1,-43,164,i,1,-0.3,0,104
O=C(COc1ccc2oc(-c3ccccc3)cc(=O)c2c1)Nc1ccccc1,.,.,i,0.91,0.1,-8,96
COc1ccc(-c2nc(NC(=O)Cn3cnnn3)sc2C)cc1,67,143,i,0.92,.,5,106
COc1cc(/C=C2/N=C(c3ccccc3F)OC2=O)cc(Cl)c1OS(C)(=O)=O,-3,67,i,1,-1.4,-5,32
Cc1ccc(C)n1-c1nccc(-c2cccs2)n1,14,61,.,.,-1.2,-7,83
O=S(=O)(c1ccc(Cl)cc1)N1CCC(n2cnc3cc(C(F)(F)F)ccc32)CC1,-6,68,i,1.1,6.3,21,.
CC1CCN(c2nc(-c3ccccc3)c(C#N)c(=O)[nH]2)CC1,31,116,i,0.89,-0.4,-3,96
COc1ccc(-n2ccnc2SCC(=O)Nc2ccccc2)cc1,-81,98,i,0.88,-2.0,3,98
COc1ccc(N=c2ssnc2Cl)cc1,34,98,i,0.97,-0.2,-3,59
O=C(COC(=O)CN1C(=O)C2CC=CCC2C1=O)Nc1cc(C(F)(F)F)ccc1N1CCOCC1 (stereo unspecified),.,.,i,0.79,0.3,3,106
COC(=O)c1cc(O)c(OCc2ccccc2)c(O)c1,-64,92,i,0.91,-1.7,-5,100
Cc1ccc2cc(CN(CC3CCCO3)S(=O)(=O)c3cccc4nsnc34)c(=O)[nH]c2c1 (stereo unspecified),.,.,i,0.98,-1.1,2,102
CCN1C(=O)C(C(=O)c2ccccc2)SC1=S (stereo unspecified),-18,151,i,0.97,.,-5,107
Cc1cc(C)cc(NS(=O)(=O)c2ccc(F)cc2)c1,.,.,i,1.1,.,.,93
CCCCC(=O)N1CC2(C)CN(C(=O)CCCC)CC(C)(C1)C2=O,50,125,i,1,-1.3,-9,105
CCOc1ccc(C(C)=O)cc1N1C(=O)C2C(C1=O)C1C=CC2C12CC2 (stereo unspecified),40,100,i,0.99,-2.1,-6,87
CCN(CC)c1ccc(/C=C/C(=O)C2C(=O)C=C(C)OC2=O)cc1 (stereo unspecified),i,108,?,.,.,47,112
COc1ccc(CCNC(=O)Cc2ccc(OC)c(OC)c2)cc1OC,.,.,i,0.87,.,3,93
O=C1c2ccccc2C(=O)N1CCCCN(C(=O)c1cc([N+](=O)[O-])cc([N+](=O)[O-])c1)c1ccc(Cl)cc1,-19,116,i,0.94,-1.5,10,16*

# 3 consecutive compounds out of the list so far, quoted:
SMILES,INS promoter inh,INS promoter inh cell count,HSV augment,HSV augment primary fold,GALR2 agonist,PKD1 inh,RGS16-Gao
CC1CCc2nc3sc4c(c3c(N)c2C1)CCCC4 (stereo unspecified),-69,65,.,.,-1.9,-12,105
COc1cc(CC(=O)N/N=C/c2ccc([N+](=O)[O-])cc2)c([N+](=O)[O-])cc1OC,.,.,i,0.93,-1.9,0,104
Cc1ccc(-c2c[n+]3c(n2-c2ccccc2)CCC3)cc1,.,.,?,.,.,.,103

# Additional structures
SMILES,INS promoter inh,INS promoter inh cell count,HSV augment,HSV augment primary fold,GALR2 agonist,PKD1 inh,RGS16-Gao
Cc1ccc(C(=O)N[C@@H](C)CN2C3=NC[C@H](C(C)C)N3C[C@H]2Cc2ccc(O)cc2)cc1Br,.,.,i,0.84,.,3,98
Cc1cc2cc3c(=O)[nH]c(=O)[nH]c3nc2cc1C,.,.,i,1.2,.,.,96
CC1=CC2(O)OCCN(CCO)C2=CC1=O (stereo unspecified),4,89,i,1.2,0.2,-6,88
CC(C)Oc1cccc(C(=O)Nc2ccccc2N2CCOCC2)c1,-38,102,i,0.93,1.3,-4,103
COc1ccc(-n2nnnc2SCC(=O)c2ccc(OC)c(OC)c2)cc1,.,.,i,0.89,-1.6,5,100
Cc1ccc(N=c2sc(C)c(C)n2C)cc1,-92,96,i,0.87,-0.2,0,102
COc1cccc(-n2nc(C(N)=O)c(O)cc2=O)c1,62,106,i,0.84,.,7,100
O=C(Nc1nccs1)c1ccc(S(=O)(=O)c2ccccc2)cc1,50,102,i,0.88,-1.5,-6,102
O=C(NC1CS(=O)(=O)CC1NCc1ccco1)c1ccccc1 (stereo unspecified),23,88,i,0.81,-1.6,-9,110
Cc1ccc(C)c(NC(=S)NC(C)C(c2cccs2)N2CCOCC2)c1 (stereo unspecified),-37,118,i,0.94,-0.4,6,105
C=CCc1cccc2cc(C(=O)NCc3cccnc3)c(=O)oc12,16,99,i,1,-0.3,5,95
CC(=O)Nc1ccc(NC(=O)C2CCCN(c3ncccn3)C2)cc1 (stereo unspecified),-3,67,i,0.88,-2.5,-10,103
Cc1ccc(S(=O)(=O)NCCN2CCOCC2)c(C)c1C,.,.,i,1.1,.,-2,103
O=c1c2c(nc3cc(-c4cccc(Cl)c4)[nH]n13)CCCC2,36,128,i,0.73,.,1,103
COc1ccc(OC)c(C(=O)CSc2nc3ncccc3[nH]2)c1,-28,75,i,0.99,-0.7,-6,97
COc1ccc(NC(=O)Nc2ccc3nsnc3c2)cc1,58,65,i,0.89,-0.9,3,65
COC(=O)c1ccccc1NC(=O)C1CCN(C(=O)c2cc(OC)cc(OC)c2)CC1,-10,51,i,0.96,-0.9,-7,89
Cc1[nH]ccc(=O)c1OC1OC(CO)C(O)C(O)C1O (stereo unspecified),14,150,i,0.91,-1.8,0,84
COc1cccc(N2C(=O)C3ON(c4ccccc4)C(c4cccs4)C3C2=O)c1 (stereo unspecified),.,.,i,1.1,-0.5,-14,106
Cc1cc(-c2onc(C)c2C(=O)N/N=C/c2ccccc2)no1,.,.,i,0.98,.,.,98
CC(C)N1CCc2c(sc(N)c2C#N)C1,.,.,i,0.92,.,.,105
Cc1ccc(/C=C2\CCCC3=C2NC(=S)NC3c2ccc(C)cc2)cc1 (stereo unspecified),40,73,i,0.74,0.6,-9,105
CC(C)(C)c1ccc(CNc2ccc([N+](=O)[O-])cn2)cc1,24,146,i,0.94,-0.1,7,98
CC(C(=O)NCc1ccco1)n1nc(-c2ccccc2)c2cc(Cl)ccc21 (stereo unspecified),.,.,i,0.85,-0.8,-11,102
O=C(CSc1nnc2c(n1)[nH]c1ccccc12)Nc1ccc(N2CCOCC2)cc1,.,.,i,1,.,.,94

# Next entries follow:
SMILES,INS promoter inh,INS promoter inh cell count,HSV augment,HSV augment primary fold,GALR2 agonist,PKD1 inh,RGS16-Gao
Cc1c(NC(=O)CCCCCN2C(=O)c3ccccc3C2=O)c(=O)n(-c2ccccc2)n1C,7,88,i,0.95,-0.6,6,100
COc1ccc(S(=O)(=O)N(C)C2CCN(C)CC2)cc1,.,.,i,1,-1.7,-9,103
CC(C)c1cc(C(=O)Nc2cccnc2)no1,50,91,i,0.93,-0.6,7,91
CCNC(=S)NNC(=O)c1cccc(Br)c1,.,.,i,0.83,-3.0,1,99
Cc1nn(-c2ccccc2)c(Cl)c1/C=N/NC(N)=O,.,.,i,1,.,.,95
CCOC(=O)c1[nH]c2ccc(Cl)cc2c1NC(=O)/C=C/c1ccc2c(c1)OCO2,.,.,i,0.89,14*,-8,98
COc1ccc2c(c1)CC(C1(O)C(=O)N(C)c3ccccc31)C2=O (stereo unspecified),-41,117,i,1,-1.3,-3,101
CN(Cc1cccs1)C(=O)COC(=O)CNC(N)=O,58,130,i,0.89,.,-1,101
Cc1ccc(-n2c(C)cc(C(=O)COc3c(CO)cc(F)cc3CO)c2C)cc1C,12,105,i,0.86,-0.9,-4,332
CC(=O)NC(Cc1ccccc1C)C(=O)NC1CCN(C(=O)c2cccc(C)c2)CC1 (stereo unspecified),20,77,i,1.1,.,1,100
CCc1cc2c(=O)[nH]c(-c3ccccn3)nc2s1,-7,59,i,0.56,0.0,3,103
Oc1c(C(c2cccc(F)c2)N2CCN(Cc3ccccc3)CC2)sc2ncnn12 (stereo unspecified),57,102,i,0.77,-1.5,-6,100

# Source: PubChem BioAssay
